RE007 growth inh = less growth of the S. pombe RE007 Vpr strain; hit rate 0.21% among 360,000; S. pombe RE007 Vpr strain, BacTiter-Glo ATP luminescence, 24 h; control for the full effect not named in the record; Potency, µM (doses to about 92.2 µM), for the others: at the highest dose activity change, negative = less growth; active = well fitted falling curve with a large enough effect; inconclusive = small, poorly fitted or top-dose-only effect; inactive = no such curve, though single readings can be large or run the other way;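 note: % is set by controls: 0 for no effect and ±100 for the full control effect; nearly all actives have a fitted effect of over 50% in size; the assay follows cell death caused by Vpr and the record does not say whether a fall means rescue or toxicity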
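Fission yeast RE007 carrying one integrated HIV-1 vpr copy, seeded at OD 0.01 in PMG+AL medium with 23 nL pinned compound. Grown 24 h at 30 degrees; viability read by BacTiter-Glo luminescence after 5 min.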
Cruzain noTriton = blocks cruzain activity in detergent-free assay; Potency, µM, for inactives: max response, negative = inhibition, usual class: inhibitors; hit rate 2.3% among 200,000; purified cruzain, Z-FR-AMC fluorescence, no detergent; P25779;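 note: plate controls were enzyme without inhibitor for no effect and buffer without enzyme for full effect; nearly all actives have a fitted effect of over 40% in size; top concentration of the series not given in the record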
Target sequence (P25779 123-467 limits assumed): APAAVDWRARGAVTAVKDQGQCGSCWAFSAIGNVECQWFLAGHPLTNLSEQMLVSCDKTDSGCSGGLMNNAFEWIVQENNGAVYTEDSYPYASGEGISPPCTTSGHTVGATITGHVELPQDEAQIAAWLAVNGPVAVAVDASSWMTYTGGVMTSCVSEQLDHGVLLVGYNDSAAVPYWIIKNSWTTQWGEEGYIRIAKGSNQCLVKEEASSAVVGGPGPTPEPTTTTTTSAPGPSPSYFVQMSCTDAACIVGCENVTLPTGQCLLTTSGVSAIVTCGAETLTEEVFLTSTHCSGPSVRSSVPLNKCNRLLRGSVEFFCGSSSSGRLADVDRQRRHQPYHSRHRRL
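Purified cruzain at 1.5 nM, pre-incubated 15 min with compound at room temperature in 100 mM sodium acetate pH 5.5, 5 mM DTT, 0.00005% Triton X-100. Reaction started with 2 uM Z-FR-AMC; AMC fluorescence increase over 60 s gives rate.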
StopGo reporter = FMDV 2A StopGo reporter, luciferase signal. human cells with a luciferase reporter of 2A StopGo recoding; control for the full effect not named in the record. Potency, µM (top dose mostly 57.9 µM), for inactives: at the highest dose signal change, negative = less light. hit rate 1.2% among 410,000; active = well fitted falling curve with a large enough effect; inconclusive = small, poorly fitted or top-dose-only effect; inactive = no such curve, though single readings can be large or run the other way; tested in HEK293T cells; note: % is set by controls: 0 for no effect and ±100 for the full control effect; nearly all actives have a fitted effect of over 45% in size; luciferase light after 4 h
SARS PLpro yeast = blocks SARS-CoV papain-like protease in a yeast assay; S. cerevisiae expressing SARS-CoV PLpro, growth rescue; control for the full effect not named in the record; Potency, µM (titrated, usually from 32.9 µM), for the others: at the top dose activity, positive = growth rescue; hit rate 0.19% among 330,000; active means well fitted rising curve with a large enough effect; inconclusive means small, poorly fitted or top-dose-only effect; inactive means no such curve, though single readings can be large or run the other way; note: 0% is about no effect; nearly all actives have a fitted effect of over 55% in size; growth read by luminescence after 48 h
Cruzain inh Det = cruzain (T. cruzi) inhibition with detergent. P25779. purified cruzain, Z-FR-AMC fluorescence, 0.01% Triton. Potency, µM, for inactives: max response, negative = inhibition, usual class: inhibitors. hit rate 0.43% among 200,000. AID 1478;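 note: plate controls were neutral wells for no effect and buffer without enzyme for full effect; nearly all actives have a fitted effect of over 40% in size; top concentration of the series not given in the record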
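Detergent-containing arm of a paired screen for aggregation-based inhibition: 0.01% Triton X-100 present. Cruzain at 1.5 nM cleaved 2 uM Z-FR-AMC at pH 5.5 with 5 mM DTT; AMC fluorescence gain over 60 s measured activity.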
MARV entry inh = inhibitors of Marburg virus binding or cell entry | Marburg virus pseudotyped entry inhibition, cell reporter; control for the full effect not named in the record; about a third of the inactives were read at about 46 µM | Potency, µM (highest dose often 37.8 µM), without a hit: at the highest dose activity change, negative = inhibition, usual class: inhibitors | hit rate 1.8% among 300,000; active = well fitted inhibition curve with a large enough effect; inconclusive = small, poorly fitted or top-dose-only effect, or effect the other way; inactive = flat fitted curve, though single readings scatter; tested in HEK293 cells; about a fifth of its hits are not listed in these tables; note: % is set by controls: 0 for no effect and ±100 for the full control effect; luciferase read-out
NS1 inh = blocks influenza NS1 protein function. S. cerevisiae slowed by influenza A NS1, growth recovery by OD600. Potency, µM (highest dose often 46.1 µM), for inactives: at the highest dose activity, positive = more growth. hit rate 0.4% among 270,000. AID 2326; active means well fitted rising curve with a large enough effect; inconclusive means small, poorly fitted or top-dose-only effect; inactive means no such curve, though single readings can be large or run the other way; note: nearly all actives have a fitted effect of over 50% in size
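A cell-based growth assay was used: compounds that relieve NS1-induced slow growth of budding yeast raise OD600. Assay medium was yeast nitrogen base with ammonium sulphate and -URA supplement, pH 6.0, with 2% galactose.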
Lassa entry inh = Lassa virus entry inhibition. Lassa virus pseudotype entry inhibition, cell reporter; control for the full effect not named in the record. Potency, µM (top dose mostly 37.9 µM), for the others: top-dose activity change, negative = inhibition, hits mostly inhibitors. hit rate 1.2% among 300,000. AID 540256; active means well fitted inhibition curve with a large enough effect; inconclusive means small, poorly fitted or top-dose-only effect, or effect the other way; inactive means flat fitted curve, though single readings scatter; tested in HEK293 cells; note: % is set by controls: 0 for no effect and ±100 for the full control effect; nearly all actives have a fitted effect of over 50% in size; luciferase read-out
Active calls of the source: *; ! = not active in a repeat; [ ] = dose if it differs, or a comment. Unless noted, calls come from the whole dose curve; as a rule, active = well fitted curve in the direction sought with a large enough effect; inconclusive = small, poorly fitted or top-dose-only effect, or another doubt; inactive = no such curve, though single readings can be large; an effect the other way counts as inactive or inconclusive. Potency is the fitted concentration of half-maximal effect.

Screening CC(C)Cn1c2ccccc2c2cc(C(=O)O)ccc21 returned RE007 growth inh -10%, Cruzain noTriton 6%, StopGo reporter -11%, SARS PLpro yeast -20%, Cruzain inh Det -1.6%, MARV entry inh -17%, NS1 inh -107% and Lassa entry inh 13%.
`CCOC(=O)c1[nH]c(C)c(C(=O)Nc2ccc(C)c(F)c2)c1C` gave RE007 growth inh -16%, Cruzain noTriton -5%, StopGo reporter -7%, SARS PLpro yeast 2%, Cruzain inh Det 3.6%, MARV entry inh inconclusive, NS1 inh -4% and Lassa entry inh inconclusive.
`Cc1ccc(Sc2c([N+](=O)[O-])c(=O)n(C)c3ccccc23)cc1` gave RE007 growth inh 7%, StopGo reporter 22µM*, SARS PLpro yeast 1% and NS1 inh 0%.
COc1ccccc1NC(=O)c1ccc2c(c1)N(CC(=O)NC(C)C)C(=O)C(C)(C)O2 was read as RE007 growth inh 14%, StopGo reporter -4%, SARS PLpro yeast -2%, MARV entry inh -14%[46.1 µM] and NS1 inh 4%.
`COC(=O)c1ccc(-c2csc(NC(=O)C3=COCCO3)n2)cc1` gave RE007 growth inh 0%, StopGo reporter 4%, MARV entry inh 27% and Lassa entry inh -16%.
For Cc1cccc(-n2c(SCc3cc(=O)n4c(C)cccc4n3)nc3[nH]ncc3c2=O)c1 the results were Cruzain noTriton 29%, SARS PLpro yeast -8%, Cruzain inh Det -0.4% and NS1 inh 8%.
Screening CC(=O)Nc1cccc(CCc2nc3ccccc3[nH]2)c1 returned RE007 growth inh -20%, StopGo reporter 31%[activator], SARS PLpro yeast 1%, MARV entry inh 13%, NS1 inh 7% and Lassa entry inh -9%.
For COc1ccc(C(=O)N/N=C/c2c[nH]c3ccccc23)cc1 the results were RE007 growth inh -17%, StopGo reporter 52%[activator], SARS PLpro yeast 2%, MARV entry inh 22%, NS1 inh 2% and Lassa entry inh inconclusive.
For O=C(N/C(=C/c1ccccc1)C(=O)N1CCCCC1)c1ccccc1 the results were RE007 growth inh 4%, StopGo reporter 0%, SARS PLpro yeast -3%, MARV entry inh 5%, NS1 inh -29% and Lassa entry inh 3%.
`CCCCN(C)C(=S)Nc1ccc2nc(N3CCN(CC)CC3)cc(C)c2c1` gave RE007 growth inh 7%, StopGo reporter -9%, SARS PLpro yeast -4% and NS1 inh -2%.
Screening CC1CCCN(C(c2cccs2)c2nnnn2Cc2ccccc2)C1 (configuration not stated) returned RE007 growth inh 8%, Cruzain noTriton -7%, StopGo reporter 8%, SARS PLpro yeast -21%, Cruzain inh Det -0.9%, MARV entry inh -12%, NS1 inh -25% and Lassa entry inh inconclusive.
For O=C(CN1CCN(c2ccccn2)CC1)Nc1ccccc1F the results were RE007 growth inh 6%, StopGo reporter -14%, SARS PLpro yeast 4% and NS1 inh -1%.
For CC(=O)n1nc(-c2ccncc2)nc1SCC(=O)Nc1cccc(Cl)c1 the results were RE007 growth inh -5%, StopGo reporter 7%, SARS PLpro yeast -1%, MARV entry inh -2%[46.1 µM], NS1 inh 2% and Lassa entry inh -12%[46.1 µM].
For CN1CCNC(=O)C1CC(=O)O (configuration not stated) the results were RE007 growth inh -18%, Cruzain noTriton -7%, StopGo reporter -16%, SARS PLpro yeast 3%, Cruzain inh Det 5.6%, MARV entry inh 3%, NS1 inh 6% and Lassa entry inh -1%.
`CCCn1c(CCC(=O)O)nc2cc(S(=O)(=O)N3CCCC3)ccc21` gave RE007 growth inh 3%, StopGo reporter 1%, SARS PLpro yeast -1%, MARV entry inh 11%[46.1 µM], NS1 inh -44% and Lassa entry inh 27%.
Screening O=C(CN(Cc1ccc(Cl)cc1)C(=O)c1csnn1)NCc1ccc(F)cc1 returned RE007 growth inh 3%, StopGo reporter -6%, SARS PLpro yeast 0%, MARV entry inh 8%[46.1 µM], NS1 inh -2% and Lassa entry inh inconclusive.
COc1ccc(OCC(O)Cn2c(N3CCCCC3)nc3c2c(=O)[nH]c(=O)n3C)cc1 (configuration not stated) was read as RE007 growth inh 13%, StopGo reporter -5%, SARS PLpro yeast 2% and NS1 inh 2%.
COc1cc(NC(=O)Nc2cccc(Cl)c2)c(C(=O)O)cc1OC was read as RE007 growth inh 8%, StopGo reporter inconclusive, SARS PLpro yeast 1% and NS1 inh 6%.
`Cc1ccccc1CN1c2ccccc2-c2nc(SCC(=O)NCc3ccccc3)ncc2S1(=O)=O` gave Cruzain noTriton -6%, StopGo reporter inconclusive, Cruzain inh Det 2.3% and Lassa entry inh 17%[46.1 µM].
CC(NC(=O)c1ccccc1[N+](=O)[O-])C1CC2CCC1C2 (configuration not stated) was read as RE007 growth inh 18%, StopGo reporter -2%, SARS PLpro yeast -2%, MARV entry inh 13%, NS1 inh 6% and Lassa entry inh 12%.
`CCN(C(=O)COC(=O)c1ccc(Br)o1)C1CCCCC1` gave RE007 growth inh 2%, StopGo reporter -10%, SARS PLpro yeast 4%, MARV entry inh 0%[46.1 µM] and Lassa entry inh 14%[46.1 µM].
`Cc1ccc(-c2c3c(=O)n(C)c(=O)n(C)c3cn2CCCN2CCOCC2)cc1` gave RE007 growth inh -6%, Cruzain noTriton -13%, StopGo reporter 0%, SARS PLpro yeast -11%, Cruzain inh Det 1.8%, MARV entry inh inconclusive, NS1 inh -6% and Lassa entry inh -1%.
Cc1cc(C(=O)CSc2nncs2)c(C)n1-c1ccc2c(c1)OCO2 was read as RE007 growth inh 10%, Cruzain noTriton inconclusive, SARS PLpro yeast -9%, Cruzain inh Det -7.1%, MARV entry inh 16%, NS1 inh -36% and Lassa entry inh 8%.
`Cc1ccc(OCC(=O)Nc2nnc(SCc3cc(=O)n4cc(C)ccc4n3)s2)cc1` gave Cruzain noTriton -9%, StopGo reporter 6%, Cruzain inh Det 7.4% and Lassa entry inh 16%[46.1 µM].
CCC1SC(C)C/C(=N/NC(N)=O)C1C (configuration not stated) was read as RE007 growth inh -5%, StopGo reporter -9%, SARS PLpro yeast 0%, MARV entry inh inconclusive, NS1 inh 6% and Lassa entry inh 8%.
O=C(O)c1c2c(nc3ccccc13)/C(=C/c1ccc(OC(F)F)cc1)CCC2 was read as RE007 growth inh 2%, StopGo reporter 44%[activator], SARS PLpro yeast 0%, MARV entry inh inconclusive, NS1 inh -9% and Lassa entry inh 10%[46.1 µM].
For N#C/C(=C/c1ccc(F)cc1)S(=O)(=O)c1ccccc1 the results were RE007 growth inh 2%, StopGo reporter 11%, SARS PLpro yeast 1%, MARV entry inh -11%[14.2 µM], NS1 inh 13% and Lassa entry inh 17%.
Screening COc1cc2ccc(=O)oc2cc1O returned RE007 growth inh -26%, Cruzain noTriton 32µM*, StopGo reporter inconclusive, SARS PLpro yeast 5% and Cruzain inh Det 25µM*!.
Cc1nnc(SCC(=O)NC(C)(C)C)n1NCc1ccc(N(C)C)cc1 was read as RE007 growth inh 3%, StopGo reporter -4%, SARS PLpro yeast 6%, MARV entry inh -10%[46.1 µM], NS1 inh -14% and Lassa entry inh -2%[46.1 µM].
Screening C/C(Cn1nnc([N+](=O)[O-])n1)=N\NC(=O)c1ccccc1 returned RE007 growth inh -23%, Cruzain noTriton -3%, SARS PLpro yeast 9%, Cruzain inh Det -5.4%, MARV entry inh inconclusive, NS1 inh -1% and Lassa entry inh -26%.
`CN(CCNC(=O)C1CCCN(c2ncnc3c2nc2n3CCCCC2)C1)Cc1ccccc1` (configuration not stated) gave RE007 growth inh 5%, StopGo reporter -19%, SARS PLpro yeast -3% and NS1 inh -6%.
Screening CC(=O)c1c(C)n(CCc2ccc(Cl)cc2)c2ccc(O)cc12 returned RE007 growth inh -11%, StopGo reporter -14%, SARS PLpro yeast 1%, MARV entry inh -8%, NS1 inh 18% and Lassa entry inh -5%.
CN(Cc1ccccc1)C(=O)CN(Cc1ccccc1)S(C)(=O)=O was read as RE007 growth inh 6%, Cruzain noTriton 14%, StopGo reporter -3%, SARS PLpro yeast -8%, Cruzain inh Det -2.2%, MARV entry inh -29%, NS1 inh inconclusive and Lassa entry inh 3%.
For O=C(COC(=O)/C=C/c1ccccc1)Nc1nnc(-c2ccccc2)o1 the results were RE007 growth inh -13%, StopGo reporter -13%, SARS PLpro yeast -2%, MARV entry inh 15%[46.1 µM] and Lassa entry inh -1%.
CCOc1ccc2oc(=O)cc(CN3CCN(c4cc(C)ccc4C)CC3)c2c1 was read as Cruzain noTriton 1%, StopGo reporter -30%, Cruzain inh Det -0.5%, MARV entry inh -7%[46.1 µM] and Lassa entry inh -13%[46.1 µM].
FC(F)(F)c1nc(SCc2ccccc2)n[nH]1 was read as RE007 growth inh -5%, StopGo reporter 25%, MARV entry inh 3%[46.1 µM] and Lassa entry inh 0%.
For CCOc1ccc(CC(=O)NNC(=S)Nc2ccccc2)cc1Br the results were RE007 growth inh 24%, Cruzain noTriton -4%, StopGo reporter -26%, SARS PLpro yeast 13%, Cruzain inh Det -0.3%, MARV entry inh inconclusive, NS1 inh 0% and Lassa entry inh 0%.
Screening COc1ccc(CN2C3CCCC2CC(NC(=O)Nc2cccc(C)c2)C3)cc1 (configuration not stated) returned RE007 growth inh 1%, Cruzain noTriton 4%, StopGo reporter -8%, SARS PLpro yeast -10%, Cruzain inh Det -0.7%, MARV entry inh 4.6µM*, NS1 inh -1% and Lassa entry inh inconclusive.
Screening O=C(c1ccc(S(=O)(=O)c2ccc(Cl)cc2)cc1)N1CCOCC1 returned RE007 growth inh -4%, StopGo reporter -18%, SARS PLpro yeast 1%, MARV entry inh inconclusive, NS1 inh -5% and Lassa entry inh 1%.
COc1cc(/C=C(\C#N)C(=O)Nc2ccc(C)cc2)ccc1OCc1cc(=O)n2nc(C)sc2n1 was read as Cruzain noTriton -9%, StopGo reporter -6%, Cruzain inh Det -0.6%, MARV entry inh -4%[46.1 µM] and Lassa entry inh 6%[46.1 µM].
For Cc1ccc(S(=O)(=O)c2c(CO)c(-c3ccccc3)nn2C)cc1 the results were RE007 growth inh -4%, StopGo reporter inconclusive, SARS PLpro yeast 0%, MARV entry inh inconclusive, NS1 inh -6% and Lassa entry inh inconclusive.
Screening Cc1ccc(S(=O)(=O)N2CCCc3cc(NS(=O)(=O)c4ccc(F)cc4)ccc32)cc1 returned Cruzain noTriton -8%, StopGo reporter -25%, Cruzain inh Det -4.3% and Lassa entry inh inconclusive.

Screens: PubChem BioAssay, National Center for Advancing Translational Sciences (NCATS)
